RecA splice inh – Mtb RecA intein splicing inhibitors, primary screen, biochemical, fluorescence, HTS; Protein RecA (Mycobacterium tuberculosis (strain ATCC 25618 / H37Rv)), P9WHJ3; cell-free RecA intein splicing; inhibition, %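 (about 9 µM by stock and volumes)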; actives 0.75% (n = 290,000); in the data active = inhibition above about 30%; inconclusive = no clear call, values can overlap the other calls;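 note: 0% = vehicle wells and 100% = reference inhibitor control wells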
Target sequence (P9WHJ3 whole entry, looked up, canonical isoform): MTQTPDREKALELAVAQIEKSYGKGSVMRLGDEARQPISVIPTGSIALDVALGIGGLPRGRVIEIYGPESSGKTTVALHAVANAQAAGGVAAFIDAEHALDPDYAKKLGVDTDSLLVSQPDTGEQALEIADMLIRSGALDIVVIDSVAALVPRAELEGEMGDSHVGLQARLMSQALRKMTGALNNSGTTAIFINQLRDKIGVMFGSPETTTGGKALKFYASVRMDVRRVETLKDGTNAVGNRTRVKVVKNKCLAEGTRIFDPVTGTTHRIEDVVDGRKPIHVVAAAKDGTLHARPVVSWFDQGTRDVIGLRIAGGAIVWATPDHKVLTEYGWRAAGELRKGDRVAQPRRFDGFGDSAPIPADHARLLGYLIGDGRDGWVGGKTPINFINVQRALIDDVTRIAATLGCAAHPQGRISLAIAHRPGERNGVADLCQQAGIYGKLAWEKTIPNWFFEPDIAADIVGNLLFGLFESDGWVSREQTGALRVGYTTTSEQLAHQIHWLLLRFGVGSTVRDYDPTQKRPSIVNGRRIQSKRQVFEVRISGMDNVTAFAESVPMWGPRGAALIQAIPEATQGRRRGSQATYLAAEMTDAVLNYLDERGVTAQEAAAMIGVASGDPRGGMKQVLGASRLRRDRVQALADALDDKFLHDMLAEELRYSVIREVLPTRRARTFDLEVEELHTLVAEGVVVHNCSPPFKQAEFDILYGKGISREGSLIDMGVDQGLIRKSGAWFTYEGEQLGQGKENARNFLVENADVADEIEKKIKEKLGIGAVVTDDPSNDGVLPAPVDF
Mtb growth – M. tuberculosis H37Rv growth inhibitors, H37Rv strain (AID 1626). actives 0.95% (n = 220,000). M. tuberculosis H37Rv growth inhibition; higher % means a stronger effect. inhibition, % at 10 µM; hits with a dose series show IC50 in µM;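 active = confirmed in a dose series; inconclusive = inhibition above 80% but not taken into the dose series; inactive = below 80% or under 30% at every dose of the series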;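 note: bacteria incubated seven days before Alamar blue readout; 0% = bacteria only wells and 100% = bacteria with antibiotic wells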
Mtb betalactam – beta-lactam sensitization of Mtb H37Rv, H37Rv; M. tuberculosis H37Rv growth with meropenem, percent inhibition; hits of this screen are not shown here; inhibition, % at 25 µM; actives 0.27% (n = 330,000); AID 434955, 2010;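 active = about 74% or more and at least 40 points above the plate without the antibiotic, then above 30% in a dose series; inconclusive = first-round hits that could not be retested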;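 note: growth measured after seven days incubation then overnight dye step; 0% = bacteria only wells and 100% = bacteria with antibiotic; twin plates without the antibiotic show which effects depend on it; some results filed as inactive read as strong as hits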
Arbovirus inh – antivirals against arbovirus infection, primary screen, cell-based, full library, 10K replicate subset | arbovirus infection cell-based antiviral screen | inhibition, % at 10 µM | actives 0.37% (n = 200,000);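 active = inhibition from about 30%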;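 note: bluetongue infection of BSR cells; cell survival read as ATP light after 72 h; 0% = infected wells without compound and 100% = uninfected wells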
YopH PTP inh – YopH tyrosine phosphatase inhibitors, primary screen, biochemical, fluorescence Ex485/Em525. actives 0.16% (n = 140,000). YopH tyrosine phosphatase [Yersinia enterocolitica]. inhibition, %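 (about 10 µM by stock and volumes)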;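 active = inhibition of 50% or more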;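 note: controls were vehicle for no effect and minimum signal wells for full effect; inactives centre near -20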
Arbovirus inh repeat – further read-out of Arbovirus inh, marked with its call; inhibition, %; measured here: 10K subset replicate screen; many hits read low in the repeat;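 first of two repeat runs on a subset; 0% = infected and 100% = uninfected wells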
An asterisk follows results filed as active; ? = inconclusive; . = not tested or not shown. Only part of the results is shown, so the mix of outcomes need not match the whole.

SMILES	RecA splice inh	Mtb growth	Mtb betalactam	Arbovirus inh	YopH PTP inh	others
CCOC(=O)c1ccc(N2C(=O)C3CC=C(C)CC3C2=O)cc1 (centres undefined)	-2.4	6%	2	1	-13	Arbovirus inh repeat=-2
COc1ccc(OC)c(Nc2nc(N)nc(CSc3nnc(N)s3)n2)c1	-0.2	2%	-2	-1	-23
CCOc1ccc(-c2nnc(SCc3nc4ccccc4[nH]3)n2N)cc1	2.4	-3%	9	-8	-25
Cc1cc(C(=O)NC2Cc3ccccc3C2)c(C)o1	3.3	-4%	0	.	.
Cc1cccc(N(CC(=O)NC(C)C)C(=O)CCC(=O)Nc2ccccn2)c1	-1.4	.	-8	.	.
COc1ccccc1C1CCCN1Cc1nc(-c2cc3c(cc2Cl)OCO3)oc1C (centres undefined)	0.0	10%	86	1	.
CCOC(=O)N1CCN(S(=O)(=O)c2cc3c(cc2C)NC(=O)CO3)CC1	0.4	-1%	-5	5	-10
CCc1cccc(CC)c1NC(=S)N(CCN(C)C)C(C)c1cccnc1 (centres undefined)	0.8	2%	-3	0	.
CCN(CC)S(=O)(=O)c1ccc(OC)c(NC(=O)c2cc(C)on2)c1	-2.2	5%	-5	-1	.
CCN(CC(=O)NC1CCS(=O)(=O)C1)S(=O)(=O)c1ccc2ccccc2c1 (centres undefined)	0.0	0%	-7	7	-33
CC(=NCC1CCCO1)c1c(O)n(C2CCCCC2)c(=O)[nH]c1=O (centres undefined)	-5.5	10%	2	.	.
COc1ccc2oc(=O)c(-c3nc(C)cs3)cc2c1	-18	2%	?	-3	-13
CC(=O)c1ccc(Nc2cc(C)nc3nc(C)nn23)cc1	2.2	.	7	-4	-15	Arbovirus inh repeat=3
CCSc1nncn1/N=C/c1ccc(OC)c(OC)c1	1.0	-1%	1	0	6
c1ccc(CCc2nc(-c3ccccc3)no2)cc1	.	-3%	1	-2	-9
CC(C)C(c1nnnn1CC1CCCO1)N1CCN(C2CCCC2)CC1 (centres undefined)	-15	-2%	1	10	-30
O=C(C1CC1)N1CCN(c2ccc([N+](=O)[O-])cc2-n2cccc2)CC1	3.1	5%	-4	.	.
CN(C)/C=N/c1sc2c(c1C#N)CCCCC2	0.6	0%	-6	0	-20
CCCCS(=O)(=O)N1CCCC(C(=O)Oc2ccccc2)C1 (centres undefined)	1.9	.	1	.	.
COc1ccccc1CN1C[C@@H]2C[C@@H](c3ccccc3OC)N3CCC[C@@]23C1=O	0.3	-8%	1	.	.
C/C(=N\Nc1nc(C)cc(=O)[nH]1)C1CC1	-5.5	-2%	-2	4	-12
COC(=O)c1cc(OC)c(OC)cc1NC(=O)Cc1ccccc1[N+](=O)[O-]	-0.4	1%	-2	-2	7
NC(=O)N1CC(O)CC1C(=O)Nc1ccc(Cl)c(Cl)c1 (centres undefined)	.	-9%	-2	6	-10
Cc1ccc(C(=O)Oc2cc(C)n(C)c(=O)c2)cc1	5.4	-5%	-10	13	-39
C/C(=N\NC(=S)NC1CCCCC1)c1cccc(Br)c1	-1.5	?	2	1	-16

By substructure, the entries above with a carbonyl joined to an NH by a bond outside any ring.
SMILES	RecA splice inh	Mtb growth	Mtb betalactam	Arbovirus inh	YopH PTP inh	others
Cc1cc(C(=O)NC2Cc3ccccc3C2)c(C)o1	3.3	-4%	0	.	.
Cc1cccc(N(CC(=O)NC(C)C)C(=O)CCC(=O)Nc2ccccn2)c1	-1.4	.	-8	.	.
CCN(CC)S(=O)(=O)c1ccc(OC)c(NC(=O)c2cc(C)on2)c1	-2.2	5%	-5	-1	.
CCN(CC(=O)NC1CCS(=O)(=O)C1)S(=O)(=O)c1ccc2ccccc2c1 (centres undefined)	0.0	0%	-7	7	-33
COC(=O)c1cc(OC)c(OC)cc1NC(=O)Cc1ccccc1[N+](=O)[O-]	-0.4	1%	-2	-2	7
NC(=O)N1CC(O)CC1C(=O)Nc1ccc(Cl)c(Cl)c1 (centres undefined)	.	-9%	-2	6	-10

Other records.
SMILES	RecA splice inh	Mtb growth	Mtb betalactam	Arbovirus inh	YopH PTP inh	others
O=C(CCC(=O)N1CCN(c2cccc(Cl)c2)CC1)N1CCN(c2ccccc2)CC1	3.2	.	41	.	.
O=C(CCN1C(=O)c2ccccc2S1(=O)=O)Nc1ccc2c(c1)OCCO2	1.1	-7%	-5	0	-27
CN(C)c1ccc(/C=N/n2c(-c3cccnc3)n[nH]c2=S)cc1	2.9	3%	2	6	.
CCCc1cc(=O)[nH]c(SCc2ccc(Cl)cc2)n1	0.2	5%	6	17	-8
CCOc1ccc(Nc2cc3n(c(=O)n2)CCc2cc(OC)c(OC)cc2-3)cc1	0.7	.	12	.	.
Cc1cc(C)c2c(CCl)cc(=O)oc2c1	10	3%	100	.	.
Cc1ccc(/C=c2\sc3nc(-c4cccnc4)nn3c2=O)cc1	2.1	.	1	4	-34
CC(=O)Nc1cccc(OCC(=O)Nc2ccccc2)c1	2.6	.	?	1	-88
O=C(Nc1nc(-c2cccs2)cs1)c1ccc(Cl)cc1	8.5	0%	11	8	-26
Cc1ccc(S(=O)(=O)NCCCn2ccnc2)cc1	-1.6	-2%	0	2	-27
CC#CC(=O)N1CCC(CCC(=O)N(C)Cc2ccccc2)CC1	0.2	.	9	.	.
O=C(/C=C\Nc1ccccc1Br)c1ccc2c(c1)OCO2	-2.1	4%	-3	-8	.
Cc1cc(C)cc(OCc2nnc(SCC(=O)OC3CCCCC3)o2)c1	-1.7	1.8µM*	100	-7	-1
CCOc1ccc(NC(=O)NC2(C(=O)NCc3ccco3)CCCCC2)cc1	-0.3	.	9	.	.
CC(C(=O)N1CCN(Cc2ccccc2)CC1)n1ncn2cccc2c1=O (centres undefined)	-2.2	.	-11	.	.
O=C(NCc1ccc2c(c1)OCO2)c1ccc(-c2ccc(Cl)cc2)o1	15	-4%	-7	-11	-31
O=C(Nc1ccccc1O)c1csc2c1CCCC2	4.8	2%	-2	11	.
CC(=O)Nc1cc2c(cc1C(=O)C(C)C)OCCO2	11	3%	-3	-2	-10
CCn1c(COc2ccccc2)nnc1SCc1ccc(C#N)cc1	-0.5	5%	-10	-4	-28
CC(C)Nc1nc(SCC(=O)Nc2ccccc2)nc(N2CCOCC2)n1	0.6	-6%	-8	6	-4
Cc1nc2c(c(C)nn2-c2ccccc2)c(C)c1CCC(=O)Nc1ccc(CN2CCCC2)cc1	3.1	15%	77	.	.
CCn1c2ccccc2n2c(=O)c(=O)n(CC(=O)Nc3ccc(C(C)C)cc3)nc12	-2.3	24%	6	-6	-19
CCC(C)[C@H](NC(=O)c1cc2cc(Cl)ccc2n1C)C(=O)N1CCC[C@H]1C(=O)O (some centres undefined)	0.1	.	-1	.	.
CC(C)(C)OC(=O)N1CC(O)CC1C(=O)OCC(=O)c1ccc(Cl)cc1 (centres undefined)	1.0	-6%	5	-3	-31
COc1ccc(OCc2cnc(Cl)s2)cc1	-2.7	-6%	-11	-1	-21

Additional results follow.
SMILES	RecA splice inh	Mtb growth	Mtb betalactam	Arbovirus inh	YopH PTP inh	others
COc1ccc(N(CC(=O)N2CCN(c3ccccc3F)CC2)S(=O)(=O)c2c(C)n[nH]c2C)cc1	.	-4%	-3	16	.
CCc1nnc(NS(=O)(=O)c2ccc(NS(=O)(=O)c3ccccc3[N+](=O)[O-])cc2)s1	-2.9	.	4	.	.
CCCCCCN1CCN(c2ccccc2Cl)CC1	-0.2	4%	5	7	.
CCOC(=O)[C@@H]1[C@H]2COc3cc(OC)ccc3[C@@H]2N2C(=O)N(c3cccc(C)c3)C(=O)[C@@]12C	4.2	.	-8	.	.
Cc1cccc(OCC(=O)NCC(=O)N/N=C/c2cc(Br)cc(Br)c2O)c1	7.6	.	-3	.	.
CSc1ccc(/C=N/n2nnnc2N)cc1	0.5	-3%	-7	4	-29
O=C(N/N=C/c1ccc([N+](=O)[O-])o1)c1cc(-c2ccncc2)nc2ccccc12	-0.8	64%	99	-16	6
Cn1c(=O)c(C(=O)COC(=O)c2cc(C(F)(F)F)nc3c(C(F)(F)F)cccc23)c(N)n(CC2CC2)c1=O	0.5	.	93	15	-17
CN(Cc1ccccc1)C(=S)NC(=O)C1CCCCC1	0.0	-4%	5	9	-15
CC(C)Oc1ccc(CNC(=O)C2CCCN(S(=O)(=O)N3CCOCC3)C2)cc1 (centres undefined)	1.2	.	3	.	.
Cc1csc(NC(=O)Cc2ccc(F)cc2)n1	-1.7	.	1	.	.
COCCNC(=S)N/N=C/c1ccc(OCc2ccc(C(=O)OC)cc2)c(OC)c1	-3.9	-3%	4	-8	-33
CCN=C1S/C(=C\c2cc(Br)c(O)c(OC)c2)C(=O)N1CC	-16	.	18	.	.
COC(=O)c1cccc(N(CC(=O)NC2CCCC2)C(=O)CNC(=O)c2cccs2)c1	0.8	.	-2	.	.
CC(=O)N1N=C(c2ccc(C(C)(C)C)cc2)OC1(C)C	-3.3	6%	1	12	-40
O=C(CSc1ccc2nnc(-c3cccnc3)n2n1)NCc1ccco1	0.9	-1%	-3	0	-52
O=C(NC1CC2CCC(C1)N2Cc1ccccc1)c1cccc(F)c1 (centres undefined)	-1.0	.	-6	.	.
CC1=C(C(=O)OC2CCCCC2)C(c2ccc(F)cc2)NC(=O)N1 (centres undefined)	6.4	.	1	.	.
Fc1ccc(C(c2nnnn2Cc2ccccc2)N2CCSCC2)cc1 (centres undefined)	4.2	1%	6	-3	-18
Brc1ccc(CSc2nnc(-c3cccnc3)o2)cc1	4.1	55%	88	-16	.
CCc1noc(C)c1C(=O)N1CCCC(C(=O)c2cc(F)ccc2F)C1 (centres undefined)	1.2	-6%	0	-1	.
Cn1c(O)c(C=NCCOc2ccc(Cl)cc2)c(=O)n(C)c1=O	1.6	14%	-4	3	-11	Arbovirus inh repeat=2
COc1cccc(-c2cc(C(=O)Nc3nc4ccccc4s3)c3ccccc3n2)c1	22	8.1µM*	99	2	-39
O=C(c1ccccc1)n1ccn(-c2ccccc2)c1=S	0.4	-1%	-15	-2	1
CC(C)(C)NC(=O)CSc1nc2[nH]ncc2c(=O)[nH]1	-2.1	-1%	-2	5	.

Nothing new here: entries from further up.
SMILES	RecA splice inh	Mtb growth	Mtb betalactam	Arbovirus inh	YopH PTP inh	others
Cc1cc(C)c2c(CCl)cc(=O)oc2c1	10	3%	100	.	.
Cc1ccc(/C=c2\sc3nc(-c4cccnc4)nn3c2=O)cc1	2.1	.	1	4	-34

More compounds follow.
SMILES	RecA splice inh	Mtb growth	Mtb betalactam	Arbovirus inh	YopH PTP inh	others
COc1ccc(C(=O)N/N=C(\CCC(=O)O)c2ccc(C(C)(C)C)cc2)cc1OC	-0.8	3%	4	2	.
COCCNC(=O)c1cccc(C)c1[N+](=O)[O-]	-0.5	3%	-4	-5	-28
O=C(NCCn1cccn1)C1CCC(=O)N(CCc2cccc(F)c2)C1 (centres undefined)	-0.9	.	0	.	.
COc1cccc(CNC(=O)c2nnn(CC(=O)Nc3cc(C)ccc3C)c2N)c1	-4.0	.	3	.	.
COCCNC(=O)C(c1ccc(C)o1)N(C(=O)c1snc(C(N)=O)c1N)c1ccc(C)c(C)c1 (centres undefined)	2.5	1%	-3	-4	-46
COc1ccc(NC(=O)c2cccc(Oc3ccccc3)c2)cn1	6.3	.	-5	.	.
O=C(NCC1CCCO1)C(c1cccs1)N(C(=O)c1ccc(CN2CCOCC2)o1)c1ccc(Cl)cc1 (centres undefined)	-2.3	-15%	-3	6	-22
CC(C)C(OC(=O)Cn1nnc2ccccc21)C(=O)NC1CCCC1 (centres undefined)	1.7	.	-9	.	.
COc1ccc(CNS(=O)(=O)NCc2ccc(OC)c(OC)c2)cc1OC	-0.4	.	4	12	.
COc1ccccc1-n1c(C)nnc1SCC(N)=O	0.0	-6%	-17	-4	-177
Cc1cccc(NC(=S)N(Cc2cccs2)Cc2cc3cc(C)ccc3[nH]c2=O)c1	3.1	9%	-6	4	-12
O=C(c1ccccc1)c1ccc(OCCCN2CCCCC2)cc1	.	0%	-10	-7	-15
O=c1[nH]c(SCc2nc3ccccc3c(=O)n2-c2ccccc2)nc2ccccc12	-0.4	-3%	1	-4	-26
O=c1[nH]cnc2nc(-c3ccccc3)c(-c3ccccc3)nc12	-2.1	9%	4	-5	-27
O=C(Nc1ccc(S(=O)(=O)N2CCCCCC2)cc1)c1ccc(Br)o1	9.3	2%	6	2	-14	Arbovirus inh repeat=1
Cc1ccc(N=Nc2ccc(O)c3ncccc23)cc1	3.9	?	76	-27	-6
COc1ccc(C(=O)n2cnc3ccccc32)cc1Br	6.0	.	7	.	.
Nc1nc(C2CCOCC2)cs1	-1.8	14%	-6	.	.
O=C(NN=C1CCCC1)c1[nH]c2ccc(Cl)cc2c1-c1ccccc1	17	79%	92	.	.
N/C(=N\OC(=O)c1cccc2ccccc12)c1cccc([N+](=O)[O-])c1	-0.2	60%	48	6	-44

High-throughput results deposited in PubChem by several laboratories.
